High-throughput results (PubChem BioAssay)
YopH inh – YopH (Yersinia) phosphatase inhibition; fluorescence Ex485/Em525; AID 898; 0.16% of 140,000 active; inhibition, %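 (about 10 µM by stock and volumes)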;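 active = inhibition of 50% or more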;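 also: controls were vehicle for no effect and minimum signal wells for full effect; inactives centre near -20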
Mtb betalactam – beta-lactam sensitization of Mtb H37Rv; AID 434955; M. tuberculosis H37Rv growth with meropenem, percent inhibition; hits of this screen are not shown here; inhibition, % at 25 µM; 0.27% of 330,000 active;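 active = about 74% or more and at least 40 points above the plate without the antibiotic, then above 30% in a dose series; inconclusive = first-round hits that could not be retested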;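 also: growth measured after seven days incubation then overnight dye step; 0% = bacteria only wells and 100% = bacteria with antibiotic; twin plates without the antibiotic show which effects depend on it; some results filed as inactive read as strong as hits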
Mtb H37Rv – M. tuberculosis H37Rv growth inhibitors, H37Rv strain (AID 1626); M. tuberculosis H37Rv growth inhibition; higher % means a stronger effect; inhibition, % at 10 µM; hits with a dose series show IC50 in µM; 0.95% of 220,000 active;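 active = confirmed in a dose series; inconclusive = inhibition above 80% but not taken into the dose series; inactive = below 80% or under 30% at every dose of the series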;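 also: bacteria incubated seven days before Alamar blue readout; 0% = bacteria only wells and 100% = bacteria with antibiotic wells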
Arbovirus inh – arbovirus infection inhibition | arbovirus infection cell-based antiviral screen | inhibition, % at 10 µM | 0.37% of 200,000 active;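 active = inhibition from about 30%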;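 also: bluetongue infection of BSR cells; cell survival read as ATP light after 72 h; 0% = infected wells without compound and 100% = uninfected wells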
RecA splice inh – Mtb RecA intein splicing inhibition. 0.75% of 290,000 active. cell-free RecA intein splicing, fluorescence. P9WHJ3. inhibition, %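 (about 9 µM by stock and volumes)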; in the data active = inhibition above about 30%; inconclusive = no clear call, values can overlap the other calls;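 also: 0% = vehicle wells and 100% = reference inhibitor control wells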
Target sequence (P9WHJ3 whole entry, looked up, canonical isoform): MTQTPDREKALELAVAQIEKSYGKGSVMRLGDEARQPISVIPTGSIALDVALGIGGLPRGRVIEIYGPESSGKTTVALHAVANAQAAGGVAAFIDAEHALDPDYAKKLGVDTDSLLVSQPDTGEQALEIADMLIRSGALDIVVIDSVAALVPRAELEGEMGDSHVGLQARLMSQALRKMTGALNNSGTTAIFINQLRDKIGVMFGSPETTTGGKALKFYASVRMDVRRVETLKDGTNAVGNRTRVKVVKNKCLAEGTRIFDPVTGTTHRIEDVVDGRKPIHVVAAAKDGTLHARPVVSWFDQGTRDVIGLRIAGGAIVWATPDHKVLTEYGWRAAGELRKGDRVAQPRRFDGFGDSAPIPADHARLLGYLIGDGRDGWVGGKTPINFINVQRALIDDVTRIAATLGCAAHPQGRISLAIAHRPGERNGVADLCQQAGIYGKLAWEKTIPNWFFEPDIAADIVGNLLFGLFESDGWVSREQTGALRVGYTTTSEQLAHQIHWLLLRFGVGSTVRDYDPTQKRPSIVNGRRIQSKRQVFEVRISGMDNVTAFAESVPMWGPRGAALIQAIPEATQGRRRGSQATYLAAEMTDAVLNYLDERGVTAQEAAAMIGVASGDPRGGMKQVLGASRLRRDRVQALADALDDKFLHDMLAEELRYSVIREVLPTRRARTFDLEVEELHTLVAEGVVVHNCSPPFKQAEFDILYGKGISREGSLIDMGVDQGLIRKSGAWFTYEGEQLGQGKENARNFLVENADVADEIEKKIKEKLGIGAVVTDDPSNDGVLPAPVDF
Arbovirus inh repeat – recorded beside Arbovirus inh, whose call it bears; inhibition, %; measured here: 10K subset replicate screen; many hits read low in the repeat;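 first of two repeat runs on a subset; 0% = infected and 100% = uninfected wells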
Starred values were filed as active, the others as inactive; ? = inconclusive; / = no result given.

SMILES | YopH inh | Mtb betalactam | Mtb H37Rv | Arbovirus inh | RecA splice inh | others
O=Cc1ccccc1-c1cn(CCCOCc2ccccc2)nn1 | / | -3 | / | / | 7.3
CC(C)(C)c1cccc(Oc2nn[nH]n2)c1 | -36 | 70 | -6% | 0 | /
CC(C)c1ccc(C2N3CC4([N+](=O)[O-])CN2CC([N+](=O)[O-])(C3)C4(C)C)cc1 (configuration not stated) | -10 | 3 | -1% | -7 | 0.1
COc1ccc(C2(CNC(=O)CCC(=O)O)CCCC2)cc1OC | -13 | -4 | -7% | 11 | 1.5
O=C(C1CCCN(Cc2ccccc2)C1)N1CCCCC1 (configuration not stated) | -2 | -1 | -4% | 5 | 1.0
N#Cc1ccc(OCC(=O)NCCc2ccccn2)cc1 | -2 | 3 | -1% | 12 | 2.2
CC(OC(=O)CNC(=O)c1ccc(Cl)cc1)C(=O)NC1CCCCC1C (configuration not stated) | / | -8 | / | / | -5.3
N#CCCCSc1nnc(CSc2nc3ccccc3s2)n1-c1ccccc1 | -51 | -10 | 4% | / | 4.8
CCOC(=O)c1ccc(NC(=O)CSCC(=O)OCC(=O)c2ccccc2)cc1 | 2 | -2 | 55% | 6 | 3.0
Cc1ccc(C)c2[nH]c(=O)c(CN(CC3CCCO3)S(=O)(=O)c3ccc4c(c3)OCCO4)cc12 (configuration not stated) | -15 | -13 | -2% | 4 | 1.2
COCCCNC(=O)C1C2C=CC3(CN(Cc4ccc(C)cc4)C(=O)C13)O2 (configuration not stated) | -6 | -9 | -7% | 9 | 2.0
CC1(CCc2ccccc2)NC(=O)N(CC(=O)N2CCCCCC2)C1=O (configuration not stated) | / | 0 | / | / | 0.0
COc1cccc(CNCCNC(=O)c2ccco2)c1OC | 5 | -8 | -12% | 6 | 0.2
COc1ccc2[nH]c(=O)c(CN(C(C)=O)c3cccc(C)c3)cc2c1 | -43 | -4 | -14% | -4 | 1.5
Cc1nc2nc(C)c(CCC(=O)N3CCc4ccccc43)c(C)n2n1 | -17 | -11 | -8% | -5 | 0.0

4 compounds from above, arranged by length of the SMILES, rising:
SMILES | YopH inh | Mtb betalactam | Mtb H37Rv | Arbovirus inh | RecA splice inh | others
COc1cccc(CNCCNC(=O)c2ccco2)c1OC | 5 | -8 | -12% | 6 | 0.2
O=Cc1ccccc1-c1cn(CCCOCc2ccccc2)nn1 | / | -3 | / | / | 7.3
COc1ccc(C2(CNC(=O)CCC(=O)O)CCCC2)cc1OC | -13 | -4 | -7% | 11 | 1.5
N#CCCCSc1nnc(CSc2nc3ccccc3s2)n1-c1ccccc1 | -51 | -10 | 4% | / | 4.8

Next results:
SMILES | YopH inh | Mtb betalactam | Mtb H37Rv | Arbovirus inh | RecA splice inh | others
N#Cc1ccc(C(c2nnnn2C2CCCC2)N2CCC(Cc3ccccc3)CC2)cc1 (configuration not stated) | 5 | 24 | -10% | 10 | 7.1
COc1cccc(NC(=O)c2ccnc(N3CCC(C(=O)NCc4cc(OC)ccc4OC)CC3)c2)c1 | / | -3 | / | / | -33
CC(=O)c1ccc(NC(=O)CN(C)CC(=O)Nc2cccc(F)c2)cc1 | / | -12 | 5% | 3 | -0.7
CCOC(=O)N1CCC(Nc2c(NCCN3CCN(Cc4ccccc4)CC3)c(=O)c2=O)CC1 | -18 | -11 | -1% | 4 | -3.9
COc1ccc(CSC2=CS(=O)(=O)c3ccccc3N2)cc1 | / | 1 | 4% | 4 | 3.0
Cc1ccc(NC(=O)CSc2nc3c(cc2C#N)C(=O)CCC3)cc1S(=O)(=O)N(C)C | -24 | -2 | -6% | -6 | 1.1
COc1cc(OC)cc(C(=O)NCCCCc2ccccc2)c1 | / | 4 | / | / | -0.2
CCC(=O)N1c2ccc(S(=O)(=O)CCC(=O)Nc3nccs3)cc2CC1C (configuration not stated) | 9 | -3 | -6% | 3 | 0.2
COCCn1c(-c2ccccc2)csc1=Nc1cccnc1 | / | -2 | 0% | 11 | 2.6
CS(=O)(=O)Cc1ccc(C(=O)NCC2(N3CCCCC3)CCCCC2)cc1 | / | 5 | / | / | 0.2
CCCCn1c(=N)n(CC(=O)c2ccco2)c2ccccc21 | -20 | 4 | 9% | -4 | 4.3
Cn1nnnc1CCOCCc1nnnn1C | -39 | -6 | 0% | -1 | 1.2
O=C(/C=C/NNC(=O)c1ccccc1)c1ccccc1 | -20 | 77 | -11% | -12 | 6.9
O=C(c1csc2c1CCCC2)N1CCN(c2cccc(C(F)(F)F)c2)CC1 | -13 | ? | 3% | -33 | 3.9
Cc1ccc(C)c(CN2CCC(n3nccc3NC(=O)C3CCCC3)CC2)c1 | / | ? | / | / | 2.7

Gathered by group: those above with fluorine.
SMILES | YopH inh | Mtb betalactam | Mtb H37Rv | Arbovirus inh | RecA splice inh | others
CC(=O)c1ccc(NC(=O)CN(C)CC(=O)Nc2cccc(F)c2)cc1 | / | -12 | 5% | 3 | -0.7
O=C(c1csc2c1CCCC2)N1CCN(c2cccc(C(F)(F)F)c2)CC1 | -13 | ? | 3% | -33 | 3.9

(list continues)
SMILES | YopH inh | Mtb betalactam | Mtb H37Rv | Arbovirus inh | RecA splice inh | others
O=S(=O)(c1ccc(NC(=S)NCc2cccnc2)cc1)N1CCCCC1 | / | -7 | -5% | / | -1.1
Cc1ccc(C(=O)NCc2nc3ccccc3[nH]2)o1 | / | -11 | / | / | 1.5
O=C(NC(Nc1ncc(S(=O)(=O)c2ccc([N+](=O)[O-])cc2)s1)(C(F)(F)F)C(F)(F)F)c1ccc(Cl)cc1 | -1 | 1 | / | -30 | 6.0
O=C(O)CCCC(=O)Nc1c(F)c(F)c(F)c(F)c1F | -23 | 2 | -15% | 10 | / | Arbovirus inh repeat=-1
COc1cc2nc(N(CCCN(C)C)C(=O)c3ccc(S(=O)(=O)N(C)C4CCCCC4)cc3)sc2cc1OC | / | -7 | / | / | 0.2
O=C1c2ccccc2C(=O)N1CC#CCN1CCN(C(c2ccccc2)c2ccccc2)CC1 | 2 | 14 | -17% | 5 | 17
COC(=O)c1cccc(NC(=O)CSc2nnc(COc3ccc(C#N)cc3)n2-c2ccccc2)c1 | 14 | 1 | -2% | 4 | -2.0
Cc1ccc(S(=O)(=O)N/N=C/c2cc(Br)c(C)o2)cc1 | -26 | 5 | -3% | 5 | 1.0
CCOc1ccc(NC(=S)Nc2ccc(F)cc2)cc1 | / | 84 | / | / | 0.9
CN(Cc1ccccc1)C(=O)CN1C(=O)c2ccccc2S1(=O)=O | / | 0 | / | / | 0.5
Cc1ccc(S(=O)(=O)N2c3ccccc3NC(=O)CC2C)cc1 (configuration not stated) | -33 | -8 | -3% | -1 | 1.6
CCNC1=C(Cl)C(=O)c2ccccc2C1=O | 6 | 75 | -10% | -8 | 76*
COc1ccc(S(=O)(=O)N2CCCOC2CNC(=O)C(=O)NCCCN2CCOCC2)cc1C (configuration not stated) | / | -1 | / | / | 1.9
Cn1cccc1C(=O)NC(=O)COC(=O)c1cc(S(=O)(=O)N2CCCCC2)ccc1Cl | / | 0 | -3% | 6 | 1.3
O=C(Nc1sc2c(c1C(=O)O)CCCC2)c1ccc(Cl)cc1 | / | 24 | / | / | -1.1

Nothing new here: two of the compounds above.
SMILES | YopH inh | Mtb betalactam | Mtb H37Rv | Arbovirus inh | RecA splice inh | others
Cc1ccc(S(=O)(=O)N2c3ccccc3NC(=O)CC2C)cc1 (configuration not stated) | -33 | -8 | -3% | -1 | 1.6
CCNC1=C(Cl)C(=O)c2ccccc2C1=O | 6 | 75 | -10% | -8 | 76*

The list goes on:
SMILES | YopH inh | Mtb betalactam | Mtb H37Rv | Arbovirus inh | RecA splice inh | others
COc1ccc(OCC(=O)N2CCN(c3cccc(C(F)(F)F)c3)CC2)cc1 | -4 | -4 | 3% | 5 | 1.3
Cc1ccccc1NC(=O)Cn1nnc(S(=O)(=O)c2ccc(C(C)(C)C)cc2)c1N | -21 | -6 | / | -16 | -1.1
CC1(C)CC(=O)C2=C(C1)N(CC1CCCO1)C(=O)C2(O)C(F)(F)F (configuration not stated) | -20 | -6 | 1% | 9 | -1.3
NNC(=O)c1nc(-c2ccccc2)n2c1CCCCC2 | -21 | 7 | 0% | 5 | -1.5
C[N+]1(C)CCC(OC(=O)C(O)(c2ccccc2)C2CCCC2)C1 (configuration not stated) | / | -3 | -14% | / | -5.3
CC(C)(C)c1cc(C(=O)N/N=C/c2ccco2)n[nH]1 | -7 | 2 | 3% | 2 | -2.8
O=C(NC1CC2CCCC(C1)N2)c1ccccc1 (configuration not stated) | / | -15 | / | / | -0.6
O=C(NNC(=O)c1ccccc1-n1cccc1)c1ccc(Cl)c(Cl)c1 | 13 | -9 | 7% | -20 | 1.1
COc1ccc(S(=O)(=O)NC(CC(=O)NCCc2ccc(OC)c(OC)c2)C(C)C)cc1 (configuration not stated) | / | 1 | -3% | -4 | 0.3
COCCNC(=O)C(=O)Nc1ccc2c(c1)N(S(=O)(=O)c1cccs1)CCC2 | / | 4 | / | / | -0.4
Cc1cc(C)n(-c2ccc(C(=O)N3CCC(CO)(Cc4ccccc4)CC3)cc2)n1 | / | 28 | 2% | 11 | 1.4
CCOC(=O)N1CCN(c2c(NCc3ccc(N(C)C)cc3)c(=O)c2=O)CC1 | -19 | -3 | 7% | 5 | 2.1
Cc1ccc(-c2cc(C(F)F)n3ncc(C(=O)Nc4ccc(S(=O)(=O)Nc5ccccc5C)cc4)c3n2)cc1 | -31 | 8 | -2% | -2 | -0.7
CCNC(=S)N(CCc1c(C)[nH]c2ccccc12)Cc1cc(OC)c(OC)c(OC)c1 | -30 | -2 | / | 2 | 4.1
COc1ccc(NC(=O)CN(C)C(=O)c2ccc3c(c2)S(=O)(=O)N=C2CCCCCN23)cc1 | / | -8 | / | / | -1.9
NC(=O)CSc1nnc(COc2ccccc2)n1CCc1ccccc1 | -39 | 1 | -5% | -5 | -2.2
O=C(NC(=S)NCCN1CCOCC1)c1ccc(F)cc1 | -34 | -1 | -2% | 10 | -2.0
CN(C)c1ccc(/C=C2\SC(=O)N(CCc3nnc(N)s3)C2=O)cc1 | / | 19 | -2% | / | -3.0
CC(Sc1ccc2c(c1)OCCO2)C(=O)Nc1ccc(N2CCOCC2)cc1 (configuration not stated) | / | -3 | 5% | -16 | -4.2
Cc1cccc(CN2CCN(C(=O)c3cccc4ccccc34)CC2)c1 | / | 0 | / | / | -1.4
CCC(C(=O)NC1CCCC1)N(C(=O)Cn1nnc(-c2ccc(OC)c(OC)c2)n1)c1cccc(O)c1 (configuration not stated) | / | -9 | / | / | 0.5
COc1ccc(S(=O)(=O)N2CCC(C(=O)NCc3ccccn3)CC2)cc1C | -27 | -3 | -4% | 4 | -2.3
O=S(=O)(Nn1cnnc1)c1ccccc1Cl | -38 | -17 | -6% | 1 | 6.4
O=c1[nH]c(O)c(C=Nc2ccc(Cl)cc2Cl)c(=O)[nH]1 | / | / | 5% | / | -1.4
CC(C)[C@H](NC(=O)OCc1ccccc1)C(=O)OCc1cc(=O)oc2cc(O)ccc12 | / | ? | / | / | -22
O=C(Nc1ccc(N2CCN(C(=O)c3ccco3)CC2)cc1)c1ccc2c(c1)OCO2 | -111 | 2 | -5% | -25 | /
CCc1ccc(Nc2ccc(S(=O)(=O)N3CCOCC3)cc2[N+](=O)[O-])cc1 | -7 | 1 | 10% | 7 | 1.1
Cc1cccc(NC(=O)C2CCCN2S(=O)(=O)c2ccc(F)cc2)c1C (configuration not stated) | -51 | 0 | -7% | -2 | 2.5
COc1ccc(C(=O)NC(=S)NNC(=O)c2c(-c3ccccc3)noc2C)cc1 | -8 | 26 | ? | -14 | 4.6
CC(Sc1nnc(Nc2ccccc2)s1)C(=O)Nc1nc(-c2ccccc2)cs1 (configuration not stated) | / | 53 | ? | -1 | -2.3
NS(=O)(=O)c1ccc(NC(=O)CCC(=O)c2ccc(Cl)s2)cc1 | / | 6 | / | / | -1.3
Clc1ccc2[nH]c3c(c2c1)CNCC3 | / | 5 | / | / | 2.7
CCN(CCCNC(=O)c1cn(CC)c2ccc(S(=O)(=O)N(C)C)cc2c1=O)c1cccc(C)c1 | 34 | ? | -4% | -17 | -0.2
CCC(C)C1Nc2ccc(C(=O)NCc3ccc4c(c3)OCO4)cc2NC1=O (configuration not stated) | / | 6 | / | / | -0.6
CC1(C)CC(NC(=O)C23CCC(C)(C(=O)C2)C3(C)C)CC(C)(C)N1 (configuration not stated) | -26 | 5 | -9% | 0 | / | Arbovirus inh repeat=2
Cc1ccc(C(=O)C(C)OC(=O)CCN=C2NS(=O)(=O)c3ccccc32)cc1 (configuration not stated) | / | -6 | / | / | -0.9
O=C(O/N=C1\CCCc2ccccc21)c1cccc(Cl)c1 | -5 | 7 | 0% | -6 | 6.6
COc1ccc(Cl)cc1NC(=S)NCCN1CCOCC1 | / | 2 | -2% | 7 | -3.4
O=C(CCc1ccccn1)N1CCCC(Nc2cccc(F)c2)C1 (configuration not stated) | / | 5 | / | / | 0.9

An excerpt. The share of hits here may be higher or lower than overall.
